CtBP-E1A blk: inhibitors of CtBP/E1A interaction; AlphaScreen GST-E1A/His-CtBP binding, 1536-well; hits give low values; control for the full effect not named in the record; activity change, % (concentration not given with the values); hit rate 0.49% among 340,000; AID 651724; in the data active means activity change below about -65%; inconclusive means about -30% to -65%; inactive means above about -30%; further: on the % scale 0 is the no-effect control and ±100 the full control effect
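In 5 uL wells, 23 nL compound meets equimolar GST-E1A and His-CtBP (5X stock 125 nM each) for 2 h, 37 °C. Beads (5X, 50 ug/mL) then 1 h, 37 °C, dark.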
D2 ag: human D2 receptor agonism in beta-arrestin assay; P14416; DiscoveRx PathHunter D2 beta-arrestin, luminescence, 90 min; 100% = 57 uM dopamine signal; activation, % (no concentration beside the values); hit rate 0.084% among 360,000; AID 624465; in the data active = activation above about 40%; inconclusive = about 15% to 40%; inactive = below about 15%; further: compound concentration not given in the record; the text of the record calls up to 30% inactive
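DiscoveRx PathHunter D2 beta-arrestin cells (2,100/well) attached overnight, then compound-stimulated 90 min at 37 C in HBSS/10 mM HEPES/0.1% Tween-20 buffer; beta-galactosidase complementation read by luminescence after 1 h at ambient temperature. Dopamine 57 uM final (EC100) as control.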
gsp antag: antagonizes gsp, the McCune-Albright syndrome mutation; gsp-mutant cells, cAMP HTRF, 30 min; control for the full effect not named in the record; Potency, µM (highest dose often 76.9 µM), for the others: at the top dose activity change, negative = inhibition, hits mostly inhibitors; hit rate 0.4% among 340,000; AID 624288; active = falling curve of any shape with a large fitted effect; inconclusive = falling curve, mostly with a smaller effect; inactive = flat or rising curve; cell line not stated here;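 further: intracellular cAMP measured with PDE inhibitor Ro 20-1724 present during compound exposure; potency means the concentration at half of the fitted maximal effect; on the % scale 0 is the no-effect control and ±100 the full control effect; nearly all actives have a fitted effect of over 65% in size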
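HTRF cAMP measurement after 30 min RT detection following 30 min, 37C compound treatment alongside […] (added as 300 uM solution) in G418-selected cells seeded at 2000/well and grown 16–24 h.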
Six1-Eya2 inh: blocks human Six1 binding to Eya2 | AID 651725 | activity change, % (concentration not given with the values) | Q15475+O00167 | hit rate 0.56% among 360,000 | AlphaScreen GST-Six1/His-Eya2 binding, biochemical; hits give low values; control for the full effect not named in the record; in the data active = activity change below about -65%; inconclusive = about -30% to -65%; inactive = above about -30%; further: on the % scale 0 is the no-effect control and ±100 the full control effect
Target sequence (O00167 whole entry, looked up): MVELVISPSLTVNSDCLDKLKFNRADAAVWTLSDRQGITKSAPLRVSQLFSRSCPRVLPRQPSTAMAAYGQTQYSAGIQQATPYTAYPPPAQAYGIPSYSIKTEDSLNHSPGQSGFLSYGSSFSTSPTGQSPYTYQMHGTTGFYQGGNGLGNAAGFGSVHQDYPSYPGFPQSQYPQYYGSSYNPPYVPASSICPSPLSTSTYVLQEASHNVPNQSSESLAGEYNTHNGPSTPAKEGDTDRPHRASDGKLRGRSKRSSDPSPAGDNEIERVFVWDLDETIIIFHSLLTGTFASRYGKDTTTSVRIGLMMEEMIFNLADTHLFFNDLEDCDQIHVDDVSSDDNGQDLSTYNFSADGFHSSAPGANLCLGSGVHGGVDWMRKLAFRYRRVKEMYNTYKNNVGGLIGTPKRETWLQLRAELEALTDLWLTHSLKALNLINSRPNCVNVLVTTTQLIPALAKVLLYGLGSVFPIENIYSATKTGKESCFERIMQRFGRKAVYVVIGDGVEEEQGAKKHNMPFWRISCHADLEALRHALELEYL
Target sequence (Q15475 whole entry, looked up): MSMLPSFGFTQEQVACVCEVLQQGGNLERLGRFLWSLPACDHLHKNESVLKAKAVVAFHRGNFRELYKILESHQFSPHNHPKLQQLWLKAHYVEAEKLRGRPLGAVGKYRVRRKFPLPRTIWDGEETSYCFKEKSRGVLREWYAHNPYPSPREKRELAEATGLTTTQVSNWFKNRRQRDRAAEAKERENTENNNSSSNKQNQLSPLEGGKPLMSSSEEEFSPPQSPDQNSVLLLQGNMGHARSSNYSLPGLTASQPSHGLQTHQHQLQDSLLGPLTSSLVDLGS
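AlphaScreen luminescence read after one hour at 37 °C in darkness. Pin-transferred compounds met GST-Six1 and His-Eya2 protein (5X stock 250 nM/500 nM) plus glutathione donor and Ni-chelate acceptor beads (5X, 50 ug/mL).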
gsp ag: activates gsp, the McCune-Albright syndrome mutation; gsp mutant cells, cAMP HTRF, 30 min; control for the full effect not named in the record; Potency, µM (doses to about 76.9 µM), without a hit: top-dose activation (cAMP increase), most hits filed as activators; hit rate 0.13% among 340,000; AID 624287; active = well fitted activation curve with a large enough effect; inconclusive = small, poorly fitted or top-dose-only effect, or another doubt; inactive = no such curve, though single readings can be large or run the other way; cell line not stated here;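 further: phosphodiesterase inhibitor Ro 20-1724 added with compounds to block cAMP breakdown; potency means the concentration at half of the fitted maximal effect; nearly all actives have a fitted effect of over 60% in size; about a fifth of the inactives were tested at one dose only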
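Cells in DMEM/10% FBS with G418 were pretreated with compounds in DMSO plus […] (300 uM stock) for 30 min at 37C. cAMP was measured by HTRF (cAMP-d2 plus anti-cAMP antibody-K) after 30 min at room temperature.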
D2 PAM: potentiates the human D2 dopamine receptor allosterically; P14416; DiscoveRx D2 beta-arrestin cells, luminescence, 90 min; 100% = 57 uM dopamine signal; potentiation, % (test concentration not listed); hit rate 0.23% among 360,000; AID 624464; active = potentiation of 50% or more; inconclusive = 30% to 50%; inactive = 30% or less;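 further: compound concentration not given in the record; tested on top of an EC20 dose of dopamine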
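PathHunter D2 cells, attached overnight at 37 deg C, received compound in DMSO plus dopamine at EC20 (50 nM final) for 90 min at 37 deg C. Beta-arrestin recruitment was read as luminescence after 1 h with detection reagent at ambient temperature.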
An asterisk follows results filed as active; ? = inconclusive; . = no result given; [ ] = another dose, or the depositor's remark.

SMILES	CtBP-E1A blk	D2 ag	gsp antag	Six1-Eya2 inh	gsp ag	D2 PAM
O=C(COc1ccccc1Cc1ccccc1)NCCCN1CCOCC1	6	-1.5	1%	3	-17%[15.4 µM]	-4
O=C(CSc1nnc(NC(=O)C2CCC2)s1)Nc1ccccc1F	0	-5.2	-2%	3	-3%[15.4 µM]	-5
CC(C)(C)OC(=O)N[C@@H](Cc1c[nH]c2ccccc12)c1nnc(SCC(N)=O)o1	-1	1.8	7%	0	2%	4
CC(=O)Nc1ccc(NC(=O)COc2cccc3c2OC(C)(C)C3)cc1	0	-4.4	6%	-2	3%	-3
COc1cccc(CNC(=O)c2cc(S(=O)(=O)N3CCCCC3)ccc2C)c1	0	-0.3	.	1	-57%[inhibitor]	-6
O=C(Nc1nc(-c2ccccc2Cl)cs1)c1cccnc1	3	-2.8	-4%	-1	-15%	1
O=C1c2ccccc2S(=O)(=O)N1CCS(=O)(=O)c1ccc(F)cc1	-21	-1.1	6%	0	27%	-1
Cc1cc(=O)n2c3ccccc3n(CC(O)CN3CCCCC3)c2c1C#N (stereo not drawn)	6	-0.7	2%	0	-31%[inhibitor]	-15
Cc1cccc(CN2CCN(C(=O)c3cccc4ccccc34)CC2)c1	-2	-1.6	10%	-20	6%[15.4 µM]	-19
O=C(CS(=O)(=O)c1ccc(F)cc1)N1CCN(c2ccccc2)CC1	8	-2.6	14%	4	-11%	-3
Cc1cc(C)n2nc(SCc3ccccc3)nc2n1	.	0.7	0%	1	26%	1
CCn1c(=O)cc(C(=O)OC)sc1=Nc1ccc(F)c(F)c1	1	-2.8	1%	4	-17%	-5
CN1/C(=C/C2CC(=O)N(c3cccc4ccccc34)C2=O)C(C)(C)c2ccccc21 (stereo not drawn)	0	0.6	-23%	-4	-48%[inhibitor]	-8
O=C(COC(=O)c1ccccc1F)c1ccc(-n2nncc2-c2ccco2)cc1	-1	-5.3	-10%	-3	20%	-4
Cc1cccc(-n2c(CNC(=O)c3ccc(S(=O)(=O)N4CCCC4)cc3)n[nH]c2=S)c1	-2	-2.4	-9%	3	-14%	-8
Cc1oc2cc3oc(=O)c(CCC(=O)N4C[C@H]5C[C@@H](C4)c4cccc(=O)n4C5)c(C)c3cc2c1C	5	-3.9	0%	-11	9%	-1
C[C@H](CO)N1C[C@H](C)[C@@H](CN(C)S(=O)(=O)c2ccccc2)Oc2c(NC(=O)CCC(F)(F)F)cccc2C1=O	7	-2.2	-12%	-3	.	-3
Cc1nc([N+](=O)[O-])nn1C12CC3CC(CC(Cl)(C3)C1)C2	6	3.3	12%	-1	-2%	-1
Cc1cc(C(=O)CN2C(=O)NC(c3ccccc3)(c3ccccc3)C2=O)c(C)n1Cc1ccccc1	-5	0.2	-3%	-3	16%	-11
CC(NCc1ccc(S(N)(=O)=O)cc1)C(=O)N1c2ccccc2CC1C (stereo not drawn)	-3	-4.6	2%	4	?	-16
O=c1ccc2ccc(Oc3ccc(Cl)cc3[N+](=O)[O-])cc2o1	-11	-0.2	-1%	-13	-25%[15.4 µM]	7
NC(=O)C1(S(=O)(=O)c2ccccc2)CCCCC1	1	-2.2	-11%[15.4 µM]	3	-36%[inhibitor]	9
CC(C)C[C@H]1CN([C@@H](Cc2ccccc2)CN2CCC[C@@H]2CN2C(=O)C(=O)NC[C@@H]2Cc2ccc(O)cc2)C(=O)C(=O)N1CCc1ccccc1	-6	-4.1	.	-13	.	-6
O=C(CSc1nnc2ccccn12)Nc1cccc(S(=O)(=O)N2CCOCC2)c1	4	-2.5	33%	-1	?	-9
O=C(c1ccc2c(c1)OCCO2)C1CCN(C(=O)c2ccc(F)c(F)c2)CC1	-3	1.0	?	-1	0%	-10
CCCc1cc(C(=O)Nc2cc(OC)c(Cl)cc2OC)no1	5	-1.8	-5%	3	-35%[inhibitor]	-3
COC(=O)Nc1nc2ccc(SC(C)C)cc2[nH]1	-19	-2.1	27%	7	.	-9
CCCS(=O)(=O)N1CCN=C1SCc1ccc(F)cc1	.	-1.4	14%	4	-12%	-9
COc1ccccc1/C=C/C(=O)NCCC1=CCCCC1	-7	-5.2	4%	3	9%[15.4 µM]	-15
CCN(C(=O)COC(=O)CNS(=O)(=O)c1ccc(SC)c([N+](=O)[O-])c1)C1CCCCC1	-6	-0.7	?	-7	-24%	-1
O=C(CC1CCCCC1)NCc1nc(-c2ccccc2)no1	.	-1.2	3%	8	-3%	-7
c1ccc(OCCCCN2CCCCC2)cc1	9	-1.6	-6%	-12	14%[15.4 µM]	-12
O=C(Cc1cccs1)NNC(=O)c1ccc(F)cc1	10	-3.9	0%	7	-12%	-11
COc1ccc(CNC(=O)c2cn(Cc3ccc(OC(C)=O)cc3)c(=O)s2)cc1	2	4.1	.	-3	.	-9
COc1cc(CN(C)C(C)C(=O)Nc2ccc([N+](=O)[O-])cc2Cl)ccc1OC(F)F (stereo not drawn)	1	-3.2	2%	10	-21%	-8
Cn1c(SCCCC(=O)c2ccccc2)nnc1-c1ccncc1	7	-1.3	-5%	-2	-32%[inhibitor]	2
COc1cccc(/C=N/NC(=O)c2ccccc2NC(=O)c2ccco2)c1OC	.	-5.3	4%	-4	1%	-15
Cc1ccc(S(=O)(=O)NNC(=S)Nc2cccc(C)c2C)cc1	1	-7.7	4%	3	2%	-12
CCOc1ccccc1-c1nc(-c2cc3ccccc3nc2OC)no1	-14	-3.2	-8%	-10	6%	1
C=CCOC(=O)C1=C[C@H](c2cn(C(C)=O)c3ccccc23)[C@@H](CCCO)[C@H](OCC)O1	2	-0.4	-8%	1	.	-5
O=C(COc1cccc(NC(=O)c2cccs2)c1)c1ccc(F)cc1	-2	1.9	-15%	-9	19%	-6
CCc1nc2ccc(C(=O)NCCCN3CCN(c4ccccc4F)CC3)cc2nc1CC	-20	6.3	-4%	-14	-3%[15.4 µM]	-20
CCOCCOC(=O)COC(=O)c1ccccc1NC(=O)c1ccccc1	18	-0.7	-19%	14	-56%[inhibitor]	-2
COc1ccc(-c2cc(N3CCN(CCO)CC3)n3nccc3n2)cc1	3	-0.6	.	-1	.	-5
CC(=O)c1ccc(S(=O)(=O)NC2CC(=O)N(c3ccc(C)c(C)c3)C2)cc1 (stereo not drawn)	8	-1.2	-6%	-3	2%[15.4 µM]	-1
O=C1CSC(=S)N1c1cccc(O)c1	1	-0.8	8%	5	18%	-11
CC1CCCC(C)N1C(=O)CSc1nc(N)c(-c2ccccc2)c(=O)[nH]1 (stereo not drawn)	5	-0.6	-5%	-2	14%	-1
CN1CCN(CC(O)COc2ccc(C34CC5CC(CC(C5)C3)C4)cc2)CC1 (stereo not drawn)	0	-6.1	.	-5	18%[15.4 µM]	-14
COc1ccc(N2CCN(C(=O)c3ccc4c(=O)n(CCc5ccc(OC)c(OC)c5)c(=O)[nH]c4c3)CC2)cc1	-1	-0.3	?	-2	-4%[15.4 µM]	-3
Cc1ccc(S(=O)(=O)N2CCC(C(=O)N3CCCC3C(=O)N[C@@H](CC(C)C)C(=O)NCC(N)=O)CC2)cc1 (stereo partly drawn)	3	3.0	-3%	8	.	-15

For reference, part of the list above:
SMILES	CtBP-E1A blk	D2 ag	gsp antag	Six1-Eya2 inh	gsp ag	D2 PAM
Cc1ccc(S(=O)(=O)NNC(=S)Nc2cccc(C)c2C)cc1	1	-7.7	4%	3	2%	-12
CCOc1ccccc1-c1nc(-c2cc3ccccc3nc2OC)no1	-14	-3.2	-8%	-10	6%	1
C=CCOC(=O)C1=C[C@H](c2cn(C(C)=O)c3ccccc23)[C@@H](CCCO)[C@H](OCC)O1	2	-0.4	-8%	1	.	-5
O=C(COc1cccc(NC(=O)c2cccs2)c1)c1ccc(F)cc1	-2	1.9	-15%	-9	19%	-6
CCc1nc2ccc(C(=O)NCCCN3CCN(c4ccccc4F)CC3)cc2nc1CC	-20	6.3	-4%	-14	-3%[15.4 µM]	-20
CCOCCOC(=O)COC(=O)c1ccccc1NC(=O)c1ccccc1	18	-0.7	-19%	14	-56%[inhibitor]	-2
COc1ccc(-c2cc(N3CCN(CCO)CC3)n3nccc3n2)cc1	3	-0.6	.	-1	.	-5
CC(=O)c1ccc(S(=O)(=O)NC2CC(=O)N(c3ccc(C)c(C)c3)C2)cc1 (stereo not drawn)	8	-1.2	-6%	-3	2%[15.4 µM]	-1
O=C1CSC(=S)N1c1cccc(O)c1	1	-0.8	8%	5	18%	-11
CC1CCCC(C)N1C(=O)CSc1nc(N)c(-c2ccccc2)c(=O)[nH]1 (stereo not drawn)	5	-0.6	-5%	-2	14%	-1

(continued)
SMILES	CtBP-E1A blk	D2 ag	gsp antag	Six1-Eya2 inh	gsp ag	D2 PAM
COC(=O)c1ccc(Cn2c(C)c(C(=O)NCc3cccc(C(F)(F)F)c3)sc2=O)o1	-1	7.9	.	-6	.	2
COc1ccc(C(=O)Nc2ccccc2C(=O)NC(Cc2ccc(O)cc2)C(=O)NNC(=O)c2ccccc2)cc1 (stereo not drawn)	-3	1.1	-11%	0	30%	-15
O=C(O)CCC(=O)NCC1OCCc2ccccc21 (stereo not drawn)	1	-1.2	12%	6	-32%[inhibitor]	-17
Cc1nc(=O)c(-c2ccccc2)c(C)n1-c1ccccc1	7	-0.6	-5%	-3	14%	-1
CC(C)(C)c1ccc(C(CC(=O)O)NC(=O)CSc2ccccc2)cc1 (stereo not drawn)	1	-6.0	-1%	2	27%[15.4 µM]	-4
COc1ccc2c(c1)cc1n2CCN=C1N	50	0.0	6%	17	-9%	13
CC(=O)N1CCc2cc(S(=O)(=O)NC(Cc3ccccc3)C(=O)NCCN3CCCCC3C)ccc21 (stereo not drawn)	7	2.2	7%	2	-4%	-8
Cc1c(CN2CCC(C)CC2)c(=O)n(-c2ccccc2)n1C	0	1.3	-1%	0	-12%	-11
O=C(O)c1ccccc1SCC(=O)N1CCCCC1	-1	-0.6	0%	13	-13%	3
CN(C)S(=O)(=O)c1cccc(NC(=O)CSc2nncn2C)c1	4	-2.9	1%	0	26%[15.4 µM]	-2
CC1Cc2nc(SCC(=O)NCCc3ccccc3)n(C)c(=O)c2S1 (stereo not drawn)	4	-4.8	4%	7	?	-6
O=C(CCS(=O)(=O)c1ccccc1)NCCS(=O)(=O)c1ccccc1	0	-0.4	4%	-2	18%[15.4 µM]	-3

The order is random, and some 1.4% of all compounds hit somewhere here.
